# Assay outcomes deposited in PubChem by ICCB-Longwood Screening Facility, Harvard Medical School.
# Sa growth inh: S. aureus growth inhibition at 42 and 30 °C, primary screen, LtaS inhibitor project, RN4220, two temperatures. OD600, 20 h, 42 °C; active compounds read low. relative growth, % (test concentration not listed). hit rate 0.53% among 170,000;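 active = growth at 42 °C up to 50% and 20 or more points under that at 30 °C, or under 10% at both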;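 note: 300 nL library stock went into each well; scaled to the means of positive and negative controls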
# HCMV UL50-53 inh: inhibitors of HCMV UL50-UL53 interaction, biochemical, HTRF. HCMV UL50-UL53 nuclear egress complex (human cytomegalovirus). normalized percent inhibition. inhibition, % (test concentration not listed). hit rate 0.15% among 190,000. AID 1918969, 2023;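 active = both replicates at 50% or more, plus weaker picks with an unusually low signal ratio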;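 note: stock transfer was 100 nL into about 20 µL; 0% = negative control wells and 100% = wells with untagged competitor protein; inactives centre near -12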
# GIV-Gai inh: inhibitors of GIV peptide binding to Galpha-i3, primary screen, biochemical, fluorescence polarization, FITC-GIV GBA peptide, rat Galphai3; 90 min; active compounds read low; scaled: aluminum fluoride 0%, vehicle 100%; percent of control (FP), % (test concentration not listed); hit rate 0.42% among 210,000; AID 1224905, 2016;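 active = replicate mean at 85% of control or lower, very high polarization wells dropped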;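 note: lower values mean more displacement of the GIV peptide from Galpha-i3; wells of about 15 µL received 100 nL stock; the first replicate is given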
# Target sequence (P08753 whole entry, looked up): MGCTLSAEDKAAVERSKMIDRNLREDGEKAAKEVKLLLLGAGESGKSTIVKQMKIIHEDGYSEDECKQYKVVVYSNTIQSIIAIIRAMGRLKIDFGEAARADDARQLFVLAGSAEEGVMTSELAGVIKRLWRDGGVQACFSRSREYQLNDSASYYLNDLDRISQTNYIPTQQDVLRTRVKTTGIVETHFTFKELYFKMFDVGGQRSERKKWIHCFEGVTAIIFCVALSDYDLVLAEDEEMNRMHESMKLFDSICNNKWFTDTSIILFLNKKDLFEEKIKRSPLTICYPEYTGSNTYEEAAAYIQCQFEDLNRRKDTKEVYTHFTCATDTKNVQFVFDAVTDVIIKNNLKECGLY
# Sa growth inh second temp: further read-out of Sa growth inh, marked with its call; relative growth, %; measured here: growth at 30 °C;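 optical density after 20 h as mean of two plates; 100% = untreated growth and lower means inhibition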
# Numbers without * were called inactive; . = not tested or not shown.
Compound	HCMV UL50-53 inh	Sa growth inh second temp	Sa growth inh	GIV-Gai inh
CCOc1ccc(N=CC2C(Oc3ccc(Cl)cc3)C(=O)N2c2ccc(OCC)cc2)cc1 (stereo unspecified)	.	83	95	107
Cc1cc(C(=O)CSc2nncs2)c(C)n1CC1COc2ccccc2O1 (stereo unspecified)	-8	75	78	.
COc1ccc(C)cc1NC(=O)N(Cc1ccc(C)o1)C1CCN(C(C)=O)CC1	.	100	99	106
CC(=O)n1c2ccccc2c2c(C#N)c(N3CCCCC3)sc21	.	85	89	106
Cc1ccc(Cn2c(=O)c3cccnc3n(Cc3ccc(F)cc3)c2=O)cc1	-40	88	100	107
COC(=O)c1ccc2c(=O)n(-c3ccc(C(=O)N4CCN(c5ccccn5)CC4)cc3)c(=S)[nH]c2c1	-40	.	.	105
CC(C)n1c(O)c(N=NC(=O)c2ccc3c(c2)OCO3)c2ccccc21	-29	96	77	.
C=CCn1c(C(NC(=O)c2ccc(Cl)cc2Cl)C(C)C)n[nH]c1=S (stereo unspecified)	-8	81	103	104
S=c1[nH]nc(-c2ccc(Cl)cc2)n1C1CCCCC1	12	77	105	108
COC(=O)C1=CN(C(C)C)C=C(C(=O)OC)C1c1ccccc1Cl	-11	96	111	102

# Gathered by group, the compounds so far containing sulfur.
Compound	HCMV UL50-53 inh	Sa growth inh second temp	Sa growth inh	GIV-Gai inh
Cc1cc(C(=O)CSc2nncs2)c(C)n1CC1COc2ccccc2O1 (stereo unspecified)	-8	75	78	.
CC(=O)n1c2ccccc2c2c(C#N)c(N3CCCCC3)sc21	.	85	89	106
COC(=O)c1ccc2c(=O)n(-c3ccc(C(=O)N4CCN(c5ccccn5)CC4)cc3)c(=S)[nH]c2c1	-40	.	.	105
C=CCn1c(C(NC(=O)c2ccc(Cl)cc2Cl)C(C)C)n[nH]c1=S (stereo unspecified)	-8	81	103	104
S=c1[nH]nc(-c2ccc(Cl)cc2)n1C1CCCCC1	12	77	105	108

# Additional entries
Compound	HCMV UL50-53 inh	Sa growth inh second temp	Sa growth inh	GIV-Gai inh
COc1ccc(OC)c(NC(=O)CSc2nnc(CNc3ccc(C)cc3C)n2CC2CCCO2)c1 (stereo unspecified)	9	116	109	89
COC(=O)CC1=C(C(=O)OC)C(c2ccccc2)NC(=O)N1 (stereo unspecified)	-6	88	106	.
COc1ccccc1C(=O)Nc1ccccc1OCc1cc(=O)n2cc(C)sc2n1	-15	91	103	99
COc1ccc(S(=O)(=O)NCc2ccc3c(c2)CCN3C(C)=O)cc1OC	.	80	88	99
O=C(Nc1cccc(COC(=O)c2ccccc2)c1)c1ccccc1	-26	76	93	106
O=C(OCC(=O)c1cccs1)c1cccc(C(=O)OCC(=O)c2cccs2)n1	-19	77	88	103
O=C(c1ccccc1)N1C(=S)C(c2ccccc2)=NC12CCCC2	.	88	109	103
CCOC(=O)N1CCN(C(=S)Nc2ccc3nsnc3c2)CC1	-76	54	65	77*
CCOc1ccccc1CNC(=O)CN(c1ccc(C)cc1)S(=O)(=O)N(C)C	.	88	101	97
O=C(C1=C(c2ccccc2)C(=O)c2ccccc2C1=O)c1ccccc1	.	36	59	95

# Carrying on.
Compound	HCMV UL50-53 inh	Sa growth inh second temp	Sa growth inh	GIV-Gai inh
COC(=O)c1c(C)oc2ccc(OCC(N)=O)cc12	-5	79	88	106
O=C(CS(=O)(=O)Cc1ccccc1)Nc1nccs1	-10	91	87	.
COc1cc2[nH]c(=O)n(CCCC(=O)N3CCN(c4cccc(Cl)c4)CC3)c(=O)c2cc1OC	.	53	106	102
CC(C)CC(=O)OCc1ccc(Cl)c(Cl)c1	-11	87	105	.
CN1CCCN(C(=O)c2ccccc2OCc2ccccc2)CC1	-35	85	122	.
COc1ccc(OC)c2c(C)cc(N3CCN(S(=O)(=O)c4ccc(C)cc4)CC3)nc12	-16	.	.	105
CC1CCCN(C(=S)NC2CCCC2)C1 (stereo unspecified)	2	102	107	95
O=C(CN1CCCCC1)Nc1ccccc1-c1nc2ccccc2[nH]c1=O	-49	85	91	100
O=C(CCCn1sc2ccccc2c1=O)NC1CCCc2ccccc21 (stereo unspecified)	.	87	98	98
CCOCCC(=O)N1CCC(C(=O)OCC)CC1	4	80	111	104

# Next section:
Compound	HCMV UL50-53 inh	Sa growth inh second temp	Sa growth inh	GIV-Gai inh
CCCn1nnc2cc(S(=O)(=O)N3CCCC(C(=O)NCc4ccc(F)cc4)C3)ccc21 (stereo unspecified)	-9	.	.	103
Cc1c(C(=O)Nc2ccc(F)cc2)oc2ccc3c(c12)C(=O)CC(C)(C)O3	-34	91	92	110
Clc1ccc(/C=N/c2ccccn2)cc1	-58	-0.5*	1.3*	.
O=C(NCc1ccccc1)C1CCCN(S(=O)(=O)c2ccc3nc(-c4ccccc4)[nH]c3c2)C1 (stereo unspecified)	.	70	89	97
CCO/C=N/c1oc(C)c(C)c1C#N	-10	106	97	147
COc1ccc(CC(=O)OCC(=O)c2ccccc2)cc1OC	-17	88	94	.
Cc1oc2ncnc(N3CCCC(C(=O)NCc4cccnc4)C3)c2c1C (stereo unspecified)	-25	.	.	102
CC(C)c1nc2ccccc2n1CC(=O)N(c1ccccc1)C(C)C	-2	101	108	.
Cc1noc(/C=C/N(C)C)c1S(=O)(=O)N1CCCC(C(=O)Nc2cccc(F)c2)C1 (stereo unspecified)	-11	87	102	103
CCc1cc(C(=O)c2ccc(OC)cc2)c(NC(=O)c2ccc(C(F)(F)F)cc2)s1	-36	87	80	102

# (cont.)
Compound	HCMV UL50-53 inh	Sa growth inh second temp	Sa growth inh	GIV-Gai inh
COc1cccc(CCN2CCC(CNS(=O)(=O)c3cnc[nH]3)CC2)c1	9	.	.	103
CCn1nnc2cc(C(=O)NCC(c3ccccc3OC)N(C)C)ccc21 (stereo unspecified)	-24	87	70	.
CCOc1cc(N2CCOCC2)c(OCC)cc1NC(=O)Cc1c[nH]c2ccccc12	6	83	95	.
CN1C(=O)Cc2cc(S(=O)(=O)CCC(=O)N3CCN(c4cccc(Cl)c4)CC3)ccc21	.	30	54	101
O=C(O)CON=C1C2CC3CC(C2)CC1C3	15	99	96	.
CC(C)C(NC(=O)Nc1ccc(Cl)cc1)C(C)C	4	94	96	103
OCCSc1nnc(Nc2ccccc2)s1	-23	81	103	98
Cc1cc(C)c(-c2csc(-c3cc4ccccc4oc3=O)n2)cc1C	-13	92	96	99
O=C(Cn1c(=O)n(Cc2ccco2)c(=O)c2sc3ccccc3c21)Nc1ccccc1	-19	80	95	106
Cc1cc(C)c2c(n1)SCCN2C(=O)NCCC(=O)NC1CCCC1	-6	.	.	109

# More records follow:
Compound	HCMV UL50-53 inh	Sa growth inh second temp	Sa growth inh	GIV-Gai inh
Cc1cc(OCC(=O)c2ccc(C(F)(F)F)cc2)n2cnnc2n1	-14	86	95	102
O=C(O)Cc1nc2ccccc2s1	-10	-0.4*	-0.3*	.
CCOC(=O)CSc1nc(N)c(C#N)c(-c2ccc(OC)cc2)c1C#N	26	.	.	101
N#CCCn1cc(CO)c(-c2ccccc2)n1	6	105	107	103
CCOC(=O)c1cnc(N2CCOCC2)nc1N	7	96	96	105
COC(=O)c1ncn2c1C(=O)N(c1ccc(OC)c(Cl)c1)C(C)(C(=O)NC1CCCC1)C2 (stereo unspecified)	0	.	.	116
O=C(CN1CCN(S(=O)(=O)c2ccc3c(c2)OCCO3)CC1)NC1CCCc2ccccc21 (stereo unspecified)	-16	96	94	.
O=C1c2ccccc2C(=O)N1CCSc1ccccc1	-27	106	121	103
Cc1ccc(N(C)S(=O)(=O)c2ccc3c(c2)NC(=O)CO3)cc1	-17	.	.	105
CC(=O)N(Cc1ccccc1)c1ccccn1	2	87	106	.

# (more compounds)
Compound	HCMV UL50-53 inh	Sa growth inh second temp	Sa growth inh	GIV-Gai inh
CCOc1ncccc1C(=O)Nc1cccc(-c2nc3cccnc3s2)c1	-15	.	.	107
Cc1ccc2[nH]cc(CCNC(=O)c3cccc(Cn4c(=O)c5cccn5c5cccnc54)c3)c2c1	-12	.	.	103
Nc1cccc(C(=O)Nc2ccccc2N)c1	-16	92	91	104
CCOc1ccc(NC(=O)C(C)Sc2nnc3cc(C)c4ccccc4n23)cc1 (stereo unspecified)	-32	78	95	103
CCOc1ccc(NC(=O)c2scc(-c3ccccc3)c2S(=O)(=O)N(C)c2ccc(C)cc2)cc1	-24	.	.	104
COc1cccc(N2CC(NC(=O)/C=C\c3ccccc3)CC2=O)c1 (stereo unspecified)	.	81	116	97
O=C(COC(=O)c1ccc(Br)o1)NCc1ccccc1	-39	88	129	.
CCc1cccc(NC(=S)N(C2CCCCC2)C(C)c2cccs2)c1 (stereo unspecified)	.	90	114	102
Cc1nc2c(c(C)nn2C(C)(C)C)c(C)c1CCC(=O)Nc1ccccc1	5	95	89	107
CN(C)CC(O)C12CC3CC(CC(C3)C1)C2 (stereo unspecified)	4	96	103	.

# (continued)
Compound	HCMV UL50-53 inh	Sa growth inh second temp	Sa growth inh	GIV-Gai inh
COc1ccc(CCNC(=O)CSC2=NS(=O)(=O)c3ccccc32)cc1OC	-16	82	103	97
O=C(NCC1CC1)c1cccs1	.	95	117	100
O=C(/C=C\c1ccccc1)OCCCN1C(=O)c2cccc3c(N4CCOCC4)ccc(c23)C1=O	-12	.	.	95
COc1cccc(NC(=O)Cn2c3ccccc3c3nc(=O)cc(C)n32)c1	.	92	97	103
COc1cc(NC(C)C(=O)N(C)c2ccccc2)cc(OC)c1OC (stereo unspecified)	11	100	103	.
O=C(Cn1c2c(c(=O)n3ncnc13)CCC2)Nc1ccccc1	-23	.	.	101
Cc1cc(=O)[nH]c(SCc2nnc(-c3ccccc3)o2)n1	-26	86	107	101
Cc1ccc(=O)n(Cc2ccc(F)cc2)n1	-22	79	86	103
O=C(O)Cc1ccc(C(=O)CSc2ccccc2)s1	-10	96	109	102
CCOc1ccc(C(=O)N2CCC(C)CC2)cc1	-10	98	117	104

# Compound profiles, from the list above. Screens in order: HCMV UL50-53 inh | Sa growth inh second temp | Sa growth inh | GIV-Gai inh
# `O=C(Cn1c2c(c(=O)n3ncnc13)CCC2)Nc1ccccc1` as listed: -23 | . | . | 101
# `O=C(O)Cc1ccc(C(=O)CSc2ccccc2)s1` as listed: -10 | 96 | 109 | 102

# More structures follow.
Compound	HCMV UL50-53 inh	Sa growth inh second temp	Sa growth inh	GIV-Gai inh
CCOC(=O)/C(=N\O)c1c(C)nn(C)c1C	-33	91	98	.
COC(=O)c1sc(=S)n(C)c1C	.	95	125	105
COC(=O)C1C(=O)C=C(Nc2cc(OC)ccc2OC)CC1c1ccc(OC)cc1 (stereo unspecified)	-7	85	96	.
COc1cccc(OCCSc2nc3ccccc3n2CC(=O)N2CCOCC2)c1	-9	86	108	101
COC(=O)C1OC=C(C)C2CN3CCC4c5ccccc5NC4CC3CC21 (stereo unspecified)	-4	100	95	106
CC(Oc1ccccc1)C(=O)NC1CCCC1 (stereo unspecified)	-14	85	88	.
COC(=O)c1cccc(N2COc3ccc4c5c(c(=O)oc4c3C2)CCC5)c1	-9	75	85	101
CCOC(=O)c1oc2c(c1C)-c1nn(Cc3ccc(Cl)cc3)cc1CC2	0	90	89	107
CC(C)C(NS(=O)(=O)c1cccc2cccnc12)C(=O)Nc1ccc(OC(F)(F)F)cc1 (stereo unspecified)	.	83	99	106
CCC(=O)Nc1nonc1-c1nc2ccccc2[nH]1	-38	77	95	120

# Going on with the list.
Compound	HCMV UL50-53 inh	Sa growth inh second temp	Sa growth inh	GIV-Gai inh
CCCn1c2ccc(CC)cc2c2nc3ccccc3nc21	.	68	113	95
Cc1ccc(N2C(=O)C(C)N=C2N2CCN(c3ccccc3)CC2)cc1 (stereo unspecified)	-5	90	109	101
Cc1cc(C)c(-n2nnnc2SCC(=O)c2cc3ccccc3o2)c(C)c1	-34	87	85	106
Nc1nc(NCc2ccc(F)cc2)nn1-c1ccccc1	-7	75	83	98
Cc1ccc(C(=O)OCC(=O)c2cccc(Cl)c2)s1	-25	83	100	.
CCO/C(C)=C1/SC(=S)NC1=O	-52	84	99	192
COc1cccc(-c2cn3c(n2)sc2cc(C(=O)NCCc4ccc(OC)c(OC)c4)ccc23)c1	.	71	93	112
Cc1nc(Nc2ccc3c(c2)OCCO3)c2c(C)noc2n1	-27	.	.	100
COCCNS(=O)(=O)c1c(C)nc2sccn2c1=O	-26	87	86	101
O=C(NC1CC1)C1CCN(S(=O)(=O)Cc2ccc(Cl)cc2)CC1	-25	.	.	104

# Going on with the list:
Compound	HCMV UL50-53 inh	Sa growth inh second temp	Sa growth inh	GIV-Gai inh
Fc1ccc(-n2ncc3c(NCCCn4ccnc4)ncnc32)cc1	.	41	78	101
O=C(O)c1cc(N2CCN(C3CCCCC3)CC2)ccc1NC(=O)C1CC1	-34	.	.	104
CCCn1nnnc1SCC(=O)c1ccccc1	6	62	80	109
Cn1c(=O)c2c(SCC(=O)N3CCc4ccccc43)nc(-c3ccccc3Cl)nc2n(C)c1=O	.	91	91	101
CCOC(=O)c1c(NC(=O)c2ccc(C)cc2)sc2c1CCCCC2	-36	86	106	104
O=C(Nn1cnc2c(cnn2-c2ccccc2)c1=O)C1CCCC1	-10	85	97	103
O=C(O)Cc1cn(-c2ccccc2)nc1-c1cccs1	-41	90	137	.
O=C(Nc1ccccc1)C1CC(=O)N(Cc2ccc3c(c2)OCO3)C(=Nc2ccc(F)cc2)S1 (stereo unspecified)	-12	.	.	99
CCc1cccc(NC(=O)C(Cc2ccccc2)n2cccc2)c1 (stereo unspecified)	-29	79	87	98
